# Source: PubChem (National Center for Advancing Translational Sciences (NCATS))
# 2A firefly: FMDV 2A StopGo reporter, firefly signal; AID 1745856; actives 0.23% (n = 120,000); HEK cells with a luciferase reporter of 2A StopGo recoding; Potency, µM (doses to about 57.5 µM), inactives show at the top dose signal change, negative = less light; active = well fitted falling curve with a large enough effect; inconclusive = small, poorly fitted or top-dose-only effect; inactive = no such curve, though single readings can be large or run the other way; note: nearly all actives have a fitted effect of over 60% in size; overnight with compound
# StopGo RLuc: FMDV 2A StopGo reporter, Renilla signal; HEK cells with a luciferase reporter of 2A StopGo recoding; Potency, µM (top dose mostly 57.5 µM), inactives show at the top dose signal change, negative = less light; actives 0.32% (n = 120,000); active means well fitted falling curve with a large enough effect; inconclusive means small, poorly fitted or top-dose-only effect; inactive means no such curve, though single readings can be large or run the other way; note: nearly all actives have a fitted effect of over 55% in size; overnight with compound
# * marks the source's active call; other numbers are inactive results; ? = inconclusive; & = joins results of further samples; [ ] = dose if it differs, or a comment. % is set by controls: 0 for no effect and ±100 for the full control effect; potency is the fitted concentration of half-maximal effect.
Compound | StopGo RLuc | 2A firefly
Cc1nc2ccn(Cc3ccccc3)c(=O)c2cc1C(=O)N1CCN(c2ccccc2F)CC1 | -4% | -19%
CN1/C(=C/C(=O)C(F)(F)C(F)(F)C(F)(F)F)Sc2ccccc21 | -8% | 98%[activator]
O=C(CSc1nc2ccccc2c(=O)[nH]1)Nc1cccc(Br)c1 | 4% | 10%
CC(C)(C)C(=O)NCCCC(=O)NC1CCCC1 | 6% | -1%
Cc1ccc(-n2ncc3c(N4CCC(C(N)=O)CC4)ncnc32)cc1 | -5% | 147%[activator]
Cc1c(C)c2cc(Cl)c(OCC(=O)NCCCn3ccnc3)cc2oc1=O | 2% | 6%
COCCNC(=O)Cn1cnc2sc(C)c(S(=O)(=O)N3CCN(c4ccccc4OC)CC3)c2c1=O | 2% | 1%
Cc1ccccc1C(=O)NCCc1cccnc1 | -6% | 0%
Cc1[nH]c(C)c(C=O)c1C | 5% | -2%
CCOc1ccccc1NC(=O)CSc1nc2c(oc3ccccc32)c(=O)n1Cc1ccco1 | 6% | 5%
CN(C)C(CNC(=O)Cn1cnc2c1c(=O)n(C)c(=O)n2C)c1cccs1 (centres undefined) | -3% | 152%[activator]
Brc1ccc(-c2noc(-c3ccccc3)n2)cc1 | 2% | 0%

# The last 2 compounds of the section before are carried over, then new ones follow.
Compound | StopGo RLuc | 2A firefly
CN(C)C(CNC(=O)Cn1cnc2c1c(=O)n(C)c(=O)n2C)c1cccs1 (centres undefined) | -3% | 152%[activator]
Brc1ccc(-c2noc(-c3ccccc3)n2)cc1 | 2% | 0%
CCN(CC)c1ccc(C2C(C(=O)Nc3ccccc3C)=C(C)Nc3ncnn32)cc1 (centres undefined) | 11% | -10%
Cc1ccc2[nH]cc(C(C(=O)O)N3CCN(c4ncc(Br)cn4)CC3)c2c1 (centres undefined) | -9% | -7%
COc1cc(CN(C(=O)c2ccccc2Br)c2ccccn2)cc(OC)c1OC | 52%[activator] | -12%
CCOc1cccc2cc(-c3nc(-c4ccccc4Cl)no3)c(=O)oc12 | -4% | 12%
COc1cccc(OC)c1C(=O)Nc1cccc(-c2nc3cc(C)cc(C)c3o2)c1 | -24% | 12%
O=C(COc1ccc(F)cc1)Nc1nnc(S(=O)(=O)N2CCCC2)s1 | -7% | -8%
CCOC(=O)C1CCCN(S(=O)(=O)c2cc(-c3cc(C)no3)ccc2OC)C1 (centres undefined) | 62%[activator] | -5%
CCOCCCn1c(=N)c(C(=O)NCC2CCCO2)cc2c(=O)n3cc(C)ccc3nc21 (centres undefined) | -4% | -7%
COC(=O)c1cn(CC(=O)NC2CC2)c2ccccc12 | -8% | -1%
Cc1cccc(-c2noc(CNC(=O)c3ccc(C)cc3C)n2)c1 | 14% | 21%
Cc1ccc2nc(C(=O)N3CCN(c4cccc(Cl)c4)CC3)cn2c1 | ? | ?
CCn1cc(C#N)c(=O)n(Cc2nc(-c3ccc(Cl)cc3)no2)c1=O | 9% | 16%
COc1ccc(/C=C/C(=O)OCC2C(COC(=O)/C=C/c3ccc(OC)c(OC)c3)C2(Cl)Cl)cc1OC (centres undefined) | 0% | 17%
N#CC1=C(N)OC2=C(C(=O)CCC2)C1c1ccc(-c2ccc(Br)cc2)o1 (centres undefined) | -9% | 43%[activator]
CCC(C)c1ccc(NC(=O)COC(=O)c2cc(=O)c3ccccc3o2)cc1 (centres undefined) | -5% | 63%[activator]
NCCCCN1CCCCC1 | -10% | -8%
CC1=NS(=O)(=O)NC(C)=C1CCC(=O)Nc1ccc(C)c(C)c1 | -12% | -3%
COc1cccc(N2CCN(S(=O)(=O)c3ccc(-c4cc(C(F)(F)F)on4)s3)CC2)c1 | -9% | -11%
COC(=O)CCC1CCCNC1 (centres undefined) | 15% | 5%
CN(CC(=O)N(C)C)Cc1ccc(F)c2cccnc12 | -6% | 4%
CCn1nc(C(=O)Nc2nc(C)cs2)c2ccccc2c1=O | 23% | 65%[activator]
c1ccc2c(C3=NNC(=NC4CCCCC4)SC3)c[nH]c2c1 | 0% | 138%[activator]
COc1cccc(C(=O)Nc2ccc3nc(N4CCCC4)sc3c2)c1OC | 11% | 166%[activator]
Cc1ccc(C(=O)NCC(c2ccc3c(c2)OCO3)N2CCN(c3ccc(F)cc3)CC2)cc1 (centres undefined) | ? | ?
Cc1ccc(C(=O)c2ccccc2C(=O)OCc2c(Cl)cccc2Cl)cc1 | 143%[activator] | 97%[activator]
O=S(=O)(NCCc1csc2nc(-c3ccc(F)cc3)nn12)c1ccc(Br)cc1 | 118%[activator] | -28%
O=C(CSC1=Nc2ccccc2C2=NC(c3ccccc3)C(=O)N12)Nc1ccccc1Cl (centres undefined) | 262%[activator] | 0%
COc1ccc(NC(=O)c2cc3ccccc3oc2=O)cc1OC | 1% | 190%[activator]
Cc1cc(C)cc(C(=O)NCC(=O)O)c1 | 11% | 7%
C=CCNC(=S)N/N=C1/C=C(C)CC(C)(C)C1 | 6% | 6%
Cc1ccc(N(CC(=O)N2CCC(C(N)=O)CC2)S(=O)(=O)c2ccccc2)cc1C | 20% | 6%
CCOc1cc(/C=C(/C#N)c2ccc(OC)c(OC)c2)cc(Br)c1OCCOc1ccc(C)cc1 | 21% | 25%
COc1ccc(CNC(=O)CN(C)S(=O)(=O)c2ccc3nc(C)sc3c2)cc1 | 17% | 0%
COc1ccc(C2CC(=O)C=C(Nc3ccccc3F)C2)cc1 (centres undefined) | 24% | 3%
CNS(=O)(=O)c1ccc(OC)c(-c2nnc3c4ccccc4c(C)nn23)c1 | -2% | -7%
CCCCn1c(N)c(N(CC)C(=O)c2cc(CCC)c(C)s2)c(=O)[nH]c1=O | -20% | -18%
O=C(NCc1ccccn1)c1cc(-c2cccs2)nc2ccccc12 | 53%[activator] | 54%[activator]
COc1cc2c(=O)n(-c3ccccc3)c(=O)n(CC(=O)Nc3ccc(C)cc3)c2cc1OC | -6% | -6%
CCCCNC(=O)N[C@H](Cc1ccccc1)C(=O)O | 6% | 5%
O=C(NCCc1ccccc1)c1[nH]c2ccccc2c1Cl | 0% | 169%[activator]
COc1ccc(Oc2coc3cc(OC(=O)c4ccco4)ccc3c2=O)cc1 | 14% | 82%[activator]
CN(C)CCCNC(=O)CNc1nc(Cl)nc2nc[nH]c12 | 1% | 5%
O=C(Nc1ncc(Cc2ccc(Cl)cc2)s1)C1=Cc2ccccc2OC1 | 23% | 166%[activator]
Cc1cccc(N(CC(=O)NCCSCc2cccc(Cl)c2)S(=O)(=O)c2ccccc2)c1C | 24% | -26%
COc1cccc(C(=O)OCc2nc(-c3ccc(OC(F)(F)F)cc3)no2)c1 | 6% | 1%
COc1cccc2c1cc1c(=O)n(CC(=O)N3CCN(c4cccc(Cl)c4)CC3)nc(C)n12 | -9% | -15%
CC(Cl)C(=O)c1ccc(C(C)(C)C)cc1 (centres undefined) | -6% | -3%
CCCNC(=O)c1cccc(CNCc2ccc(F)cc2)c1 | -20% | -11%
Cc1ccc(NC(=O)Cn2c(=O)nc(-c3ccccc3)c3ccccc32)cc1 | 4% | 41%[activator]
Cn1c(=O)c2c(SCC(=O)NCC3CCCO3)nc(-c3ccccc3F)nc2n(C)c1=O (centres undefined) | -11% | -10%
CCOC(=O)Cc1ccc(NC(=O)Nc2ccc(OCc3cc(=O)n4ccccc4n3)cc2)cc1 | -1% | 10%
O=[N+]([O-])c1cc(C(F)(F)F)ccc1NC(c1ccccc1)c1ccccn1 (centres undefined) | 52%[activator] | 70%[activator]
Cc1ccc(-c2cn3c(n2)sc2cc(C(=O)NC(C)C45CC6CC(CC(C6)C4)C5)ccc23)cc1 (centres undefined) | 13% | 44%[activator]
CCC(=O)N1CCc2cc(Br)cc(S(=O)(=O)NCc3cccc(OC)c3)c21 | 150%[activator] | -21%
COCCNc1oc(-c2ccc(S(=O)(=O)N3CCCC3)cc2)nc1C#N | 44%[activator] | -4%
COC(=O)C1=C(C)NC(=O)NC1c1cn(-c2ccccc2)nc1-c1ccc(OC)c(Cl)c1 (centres undefined) | 43%[activator] | 8%
CCn1c(COc2cc(C)ccc2Cl)n[nH]c1=S | 7% | 0%
Fc1ccc(-c2noc3ncnc(N4CCN(c5ccccc5)CC4)c23)cc1 | -15% | -20%
Cc1cccc(CNC(=O)C2CCN(S(=O)(=O)c3ccc4c(c3)CCCN4C(=O)C3CCC3)CC2)c1 | 8% | 0%
CCCn1nc(C(=O)NC(c2cccs2)C(C)C)c2ccccc2c1=O (centres undefined) | 28% | 10%

# Continued.
Compound | StopGo RLuc | 2A firefly
CCCCNC(=O)CN1C(=O)CSc2ccc(S(=O)(=O)N3CCC(C)CC3)cc21 | 32%[activator] | -18%
Cc1ccc(NC(=O)C(=O)c2c(C)[nH]c3ccccc23)cc1Cl | 88%[activator] | 105%[activator]
CCOC(=O)c1cc(-c2ccc(C)cc2)n(CC(=O)Nc2ccc(OC)c(Cl)c2)c1C | 21% | 22%
COc1ccc(Nc2nc(Nc3ccc(C)c(C)c3)nc3nccnc23)cc1 | 36%[activator] | 317%[activator]
CNC(=O)C(O)C(O)C(=O)NC (centres undefined) | 12% | 4%
CC(C1CC1)N(Cc1ccccc1)C(=O)CSc1cc(C(N)=O)c2ccccc2n1 (centres undefined) | 13% | -25%
Cc1ccc(CNC(=O)c2cc(=O)c3cc(C)c(C)cc3o2)cc1 | -3% | -2%
CCOCCCn1c(=N)c(C(=O)NCc2ccco2)cc2c(=O)n3ccccc3nc21 | 0% | -15%
COc1ccc(S(=O)(=O)N2CCN(c3ccc(C)c(Cl)c3)CC2)c2ccccc12 | 168%[activator] | 13%
Cc1cccc(C(=O)N2CCN(c3oc(-c4ccco4)nc3C#N)CC2)c1 | -2% | -7%
Cc1c(C(=O)N2CCC(C)CC2)c(S(=O)(=O)NCc2ccc(F)cc2)c(C)n1C | 0% | 8%
COc1ccccc1NC(=O)Cn1c(=O)n(CCC(=O)NCC2CCCO2)c(=O)c2cc(OC)c(OC)cc21 (centres undefined) | -13% | -15%
COCCNC(=O)CSCc1nc(-c2ccc(OC)c(OC)c2)oc1C | 1% | 2%
CCCC1CCC(c2ccc(C#N)c(=O)[nH]2)CC1 (centres undefined) | 2% | 1%
CC(C)C(C)(C#N)NC(=O)CNc1cccc(-c2nnnn2C)c1 (centres undefined) | -5% | 1%
Cc1ccccc1CNC(=O)C(=O)NCC(c1ccco1)S(=O)(=O)c1ccccc1 (centres undefined) | -9% | -17%
Cc1oc(-c2ccc(C(=O)NCCc3ccc(Cl)cc3)cc2)nc1CSc1ccccc1 | 8% | -20%
Cc1[nH]c2ccc(F)cc2c1CCN(Cc1ccncc1)C(=S)NC(C)(C)C | 79%[activator] | -7%
COc1ccccc1-c1noc(CCC(=O)Nc2ccc(C)cc2C)n1 | -3% | -12%
CCOC(=O)c1sc(Nc2cccc(C)c2)nc1C(F)(F)F | 0% | 0%
Cc1ccc2c(c1)-c1nc(SCC(=O)Nc3cc(F)ccc3C)ncc1S(=O)(=O)N2C | -6% | -4%
COc1cc2c(cc1OC)C1=CC3(C(=O)Nc4cc5c(cc43)OCCO5)C(C#N)=C(N)N1CC2 (centres undefined) | 44%[activator] | 1%
CCc1ccc(C2CC(=O)NC3=C2C(=O)CC(C)(C)C3)cc1 (centres undefined) | 21% | 29%
Cc1ccc2c(=O)cc(C(=O)Nc3c(C)n(C)n(-c4ccccc4)c3=O)oc2c1 | -12%&3% | -7%&-19%
CCCOc1ccc(C(=O)Nc2ccc3oc(-c4cccc(Cl)c4Cl)nc3c2)cc1 | -13% | -7%
O=C(c1cc2ccccc2oc1=O)N1CCN(S(=O)(=O)c2ccccc2)CC1 | -2% | 7%
C=CCOC(=O)C(NC(=O)c1ccccc1)=C(C)C | 13% | 6%
COc1ccc2cc(C(=O)N3CCN(C)CC3)[nH]c2c1 | 28% | 240%[activator]
Cc1ccc(C(=O)Nc2cccc(CNCc3csc(C)n3)c2)cc1 | -4% | 72%[activator]
Cc1ccc(NC(C)C(=O)Nc2sccc2C#N)c(C)c1 (centres undefined) | 1% | 210%[activator]
CNC(=O)Cc1ccc(-n2c(=O)c3ccccc3n(CC(=O)Nc3ccc(C)c(C)c3)c2=O)cc1 | -4% | -1%
CCOc1ccccc1NC(=O)c1nnn(CC(=O)Nc2ccccc2CC)c1N | -11% | -30%
CCCN(Cc1cccs1)C(=O)Nc1ccc(Br)cc1F | -16% | -25%
Cc1ccc(S(=O)(=O)CC(=O)c2ccc(Cl)cc2)cc1C | 57%[activator] | 13%
COc1cccc(CNC(=O)CN2C(=O)COc3ccc(S(=O)(=O)Nc4ccccc4)cc32)c1 | 164%[activator] | -5%
Cc1ccc(C)c(C(C)(C)CC(=O)O)c1 | -3% | -5%
CNC(=O)c1cccc(NC(=O)c2ccc(N(C)C)cc2)c1 | 0% | 0%
COC(=O)c1ccc(C)c(NC(=O)C2CCCN(S(=O)(=O)Cc3ccc(F)cc3)C2)c1 (centres undefined) | 14% | 17%
COc1ccc2cc(CN(C)C(=O)CNC(=O)c3ccccc3Cl)ccc2c1 | -1% | -5%
Cc1cc(C)cc(NS(=O)(=O)c2ccc3[nH]cc(C(=O)NCc4ccccc4Cl)c(=O)c3c2)c1 | 59%[activator] | -4%
CCOc1ccccc1CNC(=O)c1c(C)oc2ncnc(N3CCOCC3)c12 | 10% | -1%

# Complete entries, quoted from the list.
# COC(=O)c1ccc(C)c(NC(=O)C2CCCN(S(=O)(=O)Cc3ccc(F)cc3)C2)c1 (centres undefined) as listed: StopGo RLuc = 14%; 2A firefly = 17%
# COc1ccc2cc(CN(C)C(=O)CNC(=O)c3ccccc3Cl)ccc2c1 as listed: StopGo RLuc = -1%; 2A firefly = -5%

# Only part of the results is shown; count on the stated rates, not on these rows.
